Assay outcomes from PubChem BioAssay.
Rce1 inhib = yeast Ras-converting enzyme inhibition; Q03530; actives 0.27% (n = 290,000); yeast membranes, quenched prenylated peptide cleavage fluorescence; calls only;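 active = fall in fluorescence gain of 50% or more versus controls, with final raw signal at or below 3038400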;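 also: plate controls were neutral control wells for no effect and wells lacking membranes for full effect; tested at 10 µM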
Target sequence (Q03530 whole entry, looked up): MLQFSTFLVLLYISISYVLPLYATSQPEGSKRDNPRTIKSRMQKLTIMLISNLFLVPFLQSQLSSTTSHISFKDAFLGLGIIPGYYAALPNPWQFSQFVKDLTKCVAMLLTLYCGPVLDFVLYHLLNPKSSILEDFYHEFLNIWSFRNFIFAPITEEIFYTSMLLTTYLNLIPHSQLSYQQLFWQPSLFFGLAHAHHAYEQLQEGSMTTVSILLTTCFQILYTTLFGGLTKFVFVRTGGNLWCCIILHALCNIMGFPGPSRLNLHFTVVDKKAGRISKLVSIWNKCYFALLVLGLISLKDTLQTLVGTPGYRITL
CSC inhib = blocks cancer stem cells; actives 1.1% (n = 300,000); inhibition, % at 7.5 µM; cancer stem cell-like cells viability, luminescence;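 active = mean at 75% or more and at least half the replicates too; tested in HMLE shEcad cells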;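 also: 0% = median of negative and 100% = median of positive control wells; the first replicate is given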
Env fusion inh = blocks HIV Env-driven cell-cell fusion. HeLa-JRFL Env/CEM21 cell fusion, luciferase. inhibition, % at 12.3 µM. actives 1.1% (n = 360,000). AID 651610;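 active = mean replicate inhibition score of at least 50 and every replicate individually at or above 50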;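 also: 0% = plate neutral controls and 100% = maraviroc near 300 nM; one replicate is shown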
MT1-MMP act inh = MT1-MMP (human) activation inhibition; P50281; HT1080 RFP-PRO-GFP cells, GFP/RFP ratio fluorescence, overnight; percent of plate control window, DMSO zero; GFP/RFP ratio change, % at 20 µM; actives 0.061% (n = 360,000);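 active = GFP/RFP ratio change of at least 30% with cell ATP level not reduced by more than half and red fluorescence within 50% of control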; also: strong numbers were not always called active
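Assay system: HT1080 RFP-PRO-GFP cells | Dosing: 20 µM single dose, 1% DMSO | Incubation: Cells overnight before dosing, compound overnight, 37 °C, 5% CO2 | Evaluation: GFP/RFP fluorescence ratio | Control set: DMSO-only wells and HT1080 RFP-L50D-GFP cell wells as references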
PABP polyA inh = blocks human PABP binding to poly(A) RNA | inhibition, % at 35 µM | actives 1% (n = 290,000) | fluorescence polarization;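 active = 50% or more with normal probe brightness, or confirmed in later tests; about a fifth of its hits are not listed in these tables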;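 also: calls also rest on retests at 20 µM and on dose response follow-up; controls were probe without protein and protein plus probe with vehicle; some compounds called inactive have numbers as strong as hits; many hits fall short of the cut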
Target sequence (P11940 whole entry, looked up): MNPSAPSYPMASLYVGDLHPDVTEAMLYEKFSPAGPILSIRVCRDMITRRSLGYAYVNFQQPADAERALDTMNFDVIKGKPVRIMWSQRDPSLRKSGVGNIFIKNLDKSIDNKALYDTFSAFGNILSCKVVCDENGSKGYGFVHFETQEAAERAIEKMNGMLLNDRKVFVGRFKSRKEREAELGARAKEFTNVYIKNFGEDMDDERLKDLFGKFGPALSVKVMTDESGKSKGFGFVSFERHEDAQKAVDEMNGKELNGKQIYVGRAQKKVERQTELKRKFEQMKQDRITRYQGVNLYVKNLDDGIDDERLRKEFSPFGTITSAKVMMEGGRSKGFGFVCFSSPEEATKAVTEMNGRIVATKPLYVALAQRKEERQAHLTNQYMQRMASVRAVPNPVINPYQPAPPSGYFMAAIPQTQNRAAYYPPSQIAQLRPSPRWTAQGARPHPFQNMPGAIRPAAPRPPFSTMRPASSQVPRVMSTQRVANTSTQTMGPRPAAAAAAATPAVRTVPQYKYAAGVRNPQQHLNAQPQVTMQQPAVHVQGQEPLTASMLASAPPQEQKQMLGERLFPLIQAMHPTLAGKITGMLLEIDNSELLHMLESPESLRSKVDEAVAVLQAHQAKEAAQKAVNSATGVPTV
eIF4H inh = inhibitors of RNA binding by human eIF4H; actives 0.94% (n = 290,000); Q15056; eIF4H fluorescence polarization binding assay; inhibition, % at 35 µM; AID 2012;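 active = 50% or more with normal probe brightness, or confirmed in later tests; about a fifth of its hits are not listed in these tables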;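 also: calls also rest on retests at 20 µM and on dose response follow-up; 0% = protein and probe with vehicle and 100% = probe without protein; strong numbers were not always called active; many hits fall short of the cut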
UUG fidelity = yeast start codon fidelity modulation; actives 0.13% (n = 350,000); activity score, % at 18.7 µM; S. cerevisiae UUG-firefly luciferase reporter, luminescence/redox ratio;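 active = replicate mean at a twofold rise or more, about +100% in these data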;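 also: firefly luciferase made from a UUG start codon reports start codon fidelity; reporter light over untreated wells divided by growth signal over untreated wells; some hits fall short of that in this replicate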
eIF4H inh retest = also measured in eIF4H inh; calls as there; inhibition, %; compound at 20 µM; confirmation average;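 mean of two retest wells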
PABP polyA inh retest = also measured in PABP polyA inh; calls as there; inhibition, %; compound at 20 µM; confirmation repeats;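 mean of two retest wells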
MT1-MMP act inh RFP = further read-out of MT1-MMP act inh, marked with its call; RFP signal change, %; measured here: RFP expression control read;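 0 = vehicle wells; hits needed this value within 50% of zero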
* hit, by the source's call. Only part of the results is shown; rates above refer to the full screens.

`CSCCCNC(=S)Nc1cccc(S(=O)(=O)NC2=NCCC2)c1` gave Rce1 inhib inactive, CSC inhib -2, Env fusion inh -15, MT1-MMP act inh -1, PABP polyA inh 6, eIF4H inh 8 and MT1-MMP act inh RFP 0.
Screening CC(=O)Nc1cccc(C(=O)NNC(=O)c2ccccc2-n2cccc2)c1 returned Env fusion inh 7, MT1-MMP act inh -1, UUG fidelity -8 and MT1-MMP act inh RFP 1.
For COc1ccc(C(=O)C2CCCN(C(=O)/C=C/c3ccccn3)C2)c(C)c1 (configuration not stated) the results were Rce1 inhib inactive, CSC inhib -7, Env fusion inh 7, MT1-MMP act inh 1, PABP polyA inh -1, eIF4H inh -6 and MT1-MMP act inh RFP 5.
Screening CC(NC(=O)COC(=O)c1ccc(Cl)cc1O)c1ccc(F)cc1 (configuration not stated) returned Rce1 inhib inactive, CSC inhib -12, Env fusion inh 5, MT1-MMP act inh 1, PABP polyA inh 5, eIF4H inh -10, UUG fidelity 3 and MT1-MMP act inh RFP 1.
For CC(=O)Nc1ccc(NC(=O)c2ccc(Cl)c(S(=O)(=O)N3CCc4ccccc43)c2)cc1 the results were Env fusion inh 10, MT1-MMP act inh -11, UUG fidelity -5 and MT1-MMP act inh RFP -24.
COc1cc(NC(=O)Nc2cc(C)on2)cc(OC)c1OC was read as Rce1 inhib inactive, CSC inhib 1, Env fusion inh -16, MT1-MMP act inh 1, PABP polyA inh 4, eIF4H inh -1, UUG fidelity -4 and MT1-MMP act inh RFP 1.
CC(c1ccccc1)N1CCn2c(nc3cc(NC(=O)c4cccs4)ccc32)C1 (configuration not stated) was read as Rce1 inhib inactive, CSC inhib -4, Env fusion inh -36, MT1-MMP act inh 3, PABP polyA inh 16, eIF4H inh -12, UUG fidelity -17 and MT1-MMP act inh RFP 3.
For CCC(=O)N(Cc1ccco1)c1nc(-c2cc(OC)ccc2OC)cs1 the results were Rce1 inhib inactive, CSC inhib -5, Env fusion inh -38, MT1-MMP act inh -8, PABP polyA inh 44, eIF4H inh -5, UUG fidelity -11 and MT1-MMP act inh RFP -1.
CN1CCN(CC(=O)N(Cc2c(C#N)c3ccccc3n2C)c2ccccc2)CC1 was read as Rce1 inhib inactive, CSC inhib -13, Env fusion inh 11, MT1-MMP act inh -5, PABP polyA inh -7, eIF4H inh 1, UUG fidelity 16 and MT1-MMP act inh RFP 1.
For Cc1ccc(CC2C(=O)N(c3nc(C)cc(C)n3)C(=O)C2C)cc1 (configuration not stated) the results were Rce1 inhib inactive, CSC inhib -13, Env fusion inh -10, MT1-MMP act inh -1, PABP polyA inh 2, eIF4H inh -3, UUG fidelity 4 and MT1-MMP act inh RFP 4.
O=C(O)c1c2c(nc3ccccc13)/C(=C/c1ccc(O)cc1)CCC2 was read as Rce1 inhib inactive, CSC inhib -8, Env fusion inh -4, MT1-MMP act inh -2, PABP polyA inh -11, eIF4H inh 2 and MT1-MMP act inh RFP -2.
`CCOC(=O)C1CCCN(S(=O)(=O)c2ccc(S(N)(=O)=O)cc2)C1` (configuration not stated) gave Rce1 inhib inactive, CSC inhib -9, Env fusion inh 29, MT1-MMP act inh 6, PABP polyA inh -14, eIF4H inh 4, UUG fidelity -5 and MT1-MMP act inh RFP -4.
For Cc1cc(-c2ccccc2)nc(SCC(=O)N2CCCC2)n1 the results were Rce1 inhib inactive, CSC inhib -8, Env fusion inh 25, MT1-MMP act inh 1, PABP polyA inh 4, eIF4H inh -8 and MT1-MMP act inh RFP 0.
`COC(=O)c1cc(C)sc1NC(=O)C1C2C=CC(CC2)C1C(=O)O` (configuration not stated) gave Rce1 inhib inactive, CSC inhib 2, Env fusion inh -5, MT1-MMP act inh -1, PABP polyA inh -4, eIF4H inh 3, UUG fidelity -4 and MT1-MMP act inh RFP 2.
`O=C(c1ccccc1)c1cnc(Nc2ccccc2Cl)s1` gave Rce1 inhib inactive, CSC inhib 15, MT1-MMP act inh -3, PABP polyA inh -2, eIF4H inh -1, UUG fidelity -21 and MT1-MMP act inh RFP -6.
Screening CC(C)=C[C@@H]1C[C@H](C)[C@H]2CC[C@H](C)c3c(O[C@@H]4O[C@@H](C)[C@@H](O)[C@@H](O)[C@@H]4O)c(O)c(C)c1c32 returned CSC inhib 56, MT1-MMP act inh -4, UUG fidelity 1 and MT1-MMP act inh RFP -4.
c1ccc(COc2cccc(CN3CCc4ccccc4C3)c2)cc1 was read as Rce1 inhib inactive, CSC inhib 6, Env fusion inh -20, MT1-MMP act inh -6, PABP polyA inh 0, eIF4H inh -1, UUG fidelity -1 and MT1-MMP act inh RFP 0.
`O=C(COC(=O)Cc1ccc(F)cc1)NC1CCS(=O)(=O)C1` (configuration not stated) gave Rce1 inhib inactive, CSC inhib -3, Env fusion inh -7, MT1-MMP act inh -1 and MT1-MMP act inh RFP 3.
Screening C=C(C)COc1ccc(-c2ncncc2-c2ccccc2OC)c(O)c1 returned Rce1 inhib inactive, CSC inhib 18, Env fusion inh 27, MT1-MMP act inh -4, PABP polyA inh 2, eIF4H inh -4 and MT1-MMP act inh RFP -6.
For CCn1c(=O)cc(OCC(=O)Nc2cccc(C)n2)c2ccccc21 the results were Rce1 inhib inactive, CSC inhib -7, Env fusion inh -136, MT1-MMP act inh 1, PABP polyA inh 7, eIF4H inh 12, UUG fidelity -6 and MT1-MMP act inh RFP 3.

Copied from the results shown (three entries):
O=C(O)c1c2c(nc3ccccc13)/C(=C/c1ccc(O)cc1)CCC2 was read as Rce1 inhib inactive, CSC inhib -8, Env fusion inh -4, MT1-MMP act inh -2, PABP polyA inh -11, eIF4H inh 2 and MT1-MMP act inh RFP -2.
`CCOC(=O)C1CCCN(S(=O)(=O)c2ccc(S(N)(=O)=O)cc2)C1` (configuration not stated) gave Rce1 inhib inactive, CSC inhib -9, Env fusion inh 29, MT1-MMP act inh 6, PABP polyA inh -14, eIF4H inh 4, UUG fidelity -5 and MT1-MMP act inh RFP -4.
For Cc1cc(-c2ccccc2)nc(SCC(=O)N2CCCC2)n1 the results were Rce1 inhib inactive, CSC inhib -8, Env fusion inh 25, MT1-MMP act inh 1, PABP polyA inh 4, eIF4H inh -8 and MT1-MMP act inh RFP 0.

New compounds follow.
Screening O=C(N/N=C/c1cn(-c2ccccc2)nc1-c1ccccc1)c1ccco1 returned Rce1 inhib inactive, CSC inhib 2, Env fusion inh -128, MT1-MMP act inh 3, PABP polyA inh 8, eIF4H inh -1, UUG fidelity -6 and MT1-MMP act inh RFP 0.
For CCCCCOC(=O)Cc1c(O)c2ccccc2[nH]c1=O the results were Rce1 inhib inactive, CSC inhib 4, MT1-MMP act inh 2, PABP polyA inh 56, eIF4H inh 0, UUG fidelity 2, eIF4H inh retest -6, PABP polyA inh retest 3 and MT1-MMP act inh RFP 1.
COc1ccc(-c2cc(C(=O)N/N=C/c3ccc4c(c3)OCO4)c3ccccc3n2)c(OC)c1 was read as Rce1 inhib inactive, CSC inhib 24, Env fusion inh -51, MT1-MMP act inh -5, PABP polyA inh -2, eIF4H inh 6, UUG fidelity -12 and MT1-MMP act inh RFP 2.
For COc1cccc(CNC(=O)C(C)n2ccc3cc(S(=O)(=O)N4CCCC4)ccc32)c1 (configuration not stated) the results were Rce1 inhib inactive, CSC inhib -2, Env fusion inh 6, MT1-MMP act inh 3, PABP polyA inh -4, eIF4H inh -18, UUG fidelity 1 and MT1-MMP act inh RFP -4.
For Cc1cc(NC(=O)Cn2cnc3sc(C)c(-c4ccccc4)c3c2=O)no1 the results were Rce1 inhib inactive, Env fusion inh -111, MT1-MMP act inh -1, PABP polyA inh 6, eIF4H inh -8, UUG fidelity -27 and MT1-MMP act inh RFP 1.
For Cc1nc2cc(NC(=O)N3c4ccccc4CC3C)ccc2n1C (configuration not stated) the results were CSC inhib -9, MT1-MMP act inh 5, PABP polyA inh 2, eIF4H inh -5, UUG fidelity -49 and MT1-MMP act inh RFP 5.
CN1CCN(c2ccc(NC(=O)c3sc4ccccc4c3Cl)cc2)CC1 was read as Rce1 inhib inactive, CSC inhib 8, Env fusion inh -65, MT1-MMP act inh 4, PABP polyA inh 11, eIF4H inh -5, UUG fidelity -33 and MT1-MMP act inh RFP -2.
For C/C(=N\NC(=O)c1cccnc1)c1cc2ccccc2o1 the results were Rce1 inhib inactive, CSC inhib 1, Env fusion inh -2, MT1-MMP act inh 4, PABP polyA inh 2, eIF4H inh -2 and MT1-MMP act inh RFP 6.
Screening COc1ccc(-n2c(=O)c3ccccc3n(CC(=O)OCc3ccccc3)c2=O)cc1OC returned Rce1 inhib inactive, CSC inhib -20, Env fusion inh 14, MT1-MMP act inh -1, PABP polyA inh -11, eIF4H inh -8, UUG fidelity -12 and MT1-MMP act inh RFP -3.
Screening COc1ccc(C2=NN(CCC(=O)NC3CCC(C)CC3)C(=O)CC2)cc1 (configuration not stated) returned Rce1 inhib inactive, CSC inhib 4, Env fusion inh 14, MT1-MMP act inh 1, PABP polyA inh 13, eIF4H inh 1, UUG fidelity -1 and MT1-MMP act inh RFP -4.
For CN(CC(=O)Nc1cccc(S(=O)(=O)N2CCOCC2)c1)CC(=O)Nc1ccc(Cl)c(C(F)(F)F)c1 the results were Rce1 inhib inactive, CSC inhib 3, Env fusion inh 8, MT1-MMP act inh -8, UUG fidelity -11 and MT1-MMP act inh RFP -27.
Screening CC(=O)NC(CC(=O)OCc1ccc([N+](=O)[O-])cc1)c1ccccc1 (configuration not stated) returned Rce1 inhib inactive, CSC inhib -10, Env fusion inh -6, MT1-MMP act inh -1, PABP polyA inh -6, eIF4H inh -15, UUG fidelity -16 and MT1-MMP act inh RFP 0.
Screening CC1CN(S(=O)(=O)c2ccc(C(=O)N(CCCN(C)C)c3nc4c(Cl)cccc4s3)cc2)CC(C)O1 (configuration not stated) returned Rce1 inhib inactive, CSC inhib -11, Env fusion inh -1, MT1-MMP act inh 2, PABP polyA inh 2, eIF4H inh -2, UUG fidelity -8 and MT1-MMP act inh RFP 4.
`COCCNC(=O)CN1C(=O)NC(c2ccccc2)(c2ccccc2)C1=O` gave Rce1 inhib inactive, Env fusion inh 10, MT1-MMP act inh 2, PABP polyA inh 8, eIF4H inh 2, UUG fidelity -17 and MT1-MMP act inh RFP 3.
O=C(CSc1nccc(=O)[nH]1)N1N=C2/C(=C/c3ccco3)CCCC2C1c1ccco1 (configuration not stated) was read as Rce1 inhib inactive, CSC inhib 13, Env fusion inh 10, MT1-MMP act inh -8, PABP polyA inh 10, eIF4H inh -2, UUG fidelity -5 and MT1-MMP act inh RFP 1.
COc1ccc(/C=C/C(=O)O)cc1COc1ccccc1C was read as Rce1 inhib inactive, CSC inhib 7, Env fusion inh -7, MT1-MMP act inh 2, PABP polyA inh 6, eIF4H inh 15 and MT1-MMP act inh RFP 6.
Screening Cc1ccc(NC(=O)CSc2sc3c(O)cc(=O)[nH]c3c2C#N)c(F)c1 returned Rce1 inhib inactive, CSC inhib -2, Env fusion inh -1, MT1-MMP act inh -4, PABP polyA inh 22, eIF4H inh 28, UUG fidelity -7 and MT1-MMP act inh RFP 3.
For COc1ccc(-c2nc[nH]c2[N+](=O)[O-])cc1 the results were Rce1 inhib inactive, CSC inhib 3, Env fusion inh -19, MT1-MMP act inh 1, PABP polyA inh 3, eIF4H inh -6 and MT1-MMP act inh RFP 6.
Screening O=C(CNC(=O)C1CCCCC1)NC1CCCCC1 returned Rce1 inhib inactive, CSC inhib -16, Env fusion inh -1, MT1-MMP act inh 1, PABP polyA inh 2, eIF4H inh -6, UUG fidelity -6 and MT1-MMP act inh RFP 8.
Screening CCOC(=O)C1=C(C)N(CCCC(=O)NCc2ccc3c(c2)OCO3)C(=O)NC1c1ccc(Br)cc1 (configuration not stated) returned CSC inhib -3, Env fusion inh -6, PABP polyA inh 6 and eIF4H inh -8.
